NS1 function inh: qHTS Assay for Inhibitors of Influenza NS1 Protein Function. S. cerevisiae slowed by influenza A NS1, growth recovery by OD600. Potency, µM (highest dose often 46.1 µM), without a hit: top-dose activity, positive = more growth. 0.4% of 270,000 active. AID 2326, 2010; further: actives are rising curves; nearly all actives have a fitted effect of over 50% in size
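OD600 was taken as the measure of yeast growth restored by compound in an NS1-expressing S. cerevisiae strain. Cells had been washed out of glucose medium and diluted 1:100 into galactose -URA medium, pH 6.0.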
Cruzain Triton: qHTS Assay for Promiscuous and Specific Inhibitors of Cruzain (with detergent); 0.43% of 200,000 active; AID 1478, 2009; purified cruzain, Z-FR-AMC fluorescence, 0.01% Triton; Cruzipain (Trypanosoma cruzi), P25779; Potency, µM, without a hit: max response, negative = inhibition, actives largely listed as inhibitors; active means well fitted curve in the direction sought with a large enough effect; inconclusive means small, poorly fitted or top-dose-only effect, or another doubt; inactive means no such curve, though single readings can be large; an effect the other way counts as inactive or inconclusive;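 further: plate controls were neutral wells for no effect and buffer without enzyme for full effect; nearly all actives have a fitted effect of over 40% in size; top concentration of the series not given in the record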
Target sequence (P25779 123-467 limits assumed): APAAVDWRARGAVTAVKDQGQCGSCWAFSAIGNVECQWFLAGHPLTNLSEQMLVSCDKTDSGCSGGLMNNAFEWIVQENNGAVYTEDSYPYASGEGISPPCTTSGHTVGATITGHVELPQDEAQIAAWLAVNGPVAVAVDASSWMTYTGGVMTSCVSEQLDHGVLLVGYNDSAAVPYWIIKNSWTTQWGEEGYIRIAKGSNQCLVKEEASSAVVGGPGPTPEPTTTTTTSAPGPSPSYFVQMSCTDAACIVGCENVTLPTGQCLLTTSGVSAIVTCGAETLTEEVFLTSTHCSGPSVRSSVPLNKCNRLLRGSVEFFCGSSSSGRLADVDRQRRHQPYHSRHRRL
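Cysteine protease activity tested under reducing, mildly acidic conditions (100 mM sodium acetate pH 5.5, 5 mM DTT) plus 0.01% Triton X-100. Cruzain 1.5 nM; substrate Z-FR-AMC 2 uM; 15 min compound preincubation at room temperature.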
SARS PLpro yeast: qHTS of Yeast-based Assay for SARS-CoV PLP; S. cerevisiae expressing SARS-CoV PLpro, growth rescue; control for the full effect not named in the record; Potency, µM (series often up to 32.9 µM), inactives show top-dose activity, positive = growth rescue; 0.19% of 330,000 active; further: 0% is about no effect; nearly all actives have a fitted effect of over 55% in size; growth read by luminescence after 48 h
Cruzain inh noDet: qHTS Assay for Promiscuous and Specific Inhibitors of Cruzain (without detergent). 2.3% of 200,000 active. purified cruzain, Z-FR-AMC fluorescence, no detergent. Potency, µM, for inactives: max response, negative = inhibition, actives largely listed as inhibitors. AID 1476, 2009. Cruzipain (Trypanosoma cruzi), P25779; active means well fitted curve in the direction sought with a large enough effect; inconclusive means small, poorly fitted or top-dose-only effect, or another doubt; inactive means no such curve, though single readings can be large; an effect the other way counts as inactive or inconclusive;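 further: plate controls were enzyme without inhibitor for no effect and buffer without enzyme for full effect; nearly all actives have a fitted effect of over 40% in size; top concentration of the series not given in the record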
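Purified cruzain at 1.5 nM, pre-incubated 15 min with compound at room temperature in 100 mM sodium acetate pH 5.5, 5 mM DTT, 0.00005% Triton X-100. Reaction started with 2 uM Z-FR-AMC; AMC fluorescence increase over 60 s gives rate.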
2A StopGo: High Throughput Screening for Foot and Mouth Disease Virus Antivirals | 1.2% of 410,000 active | Potency, µM (series often up to 57.9 µM), inactives show top-dose signal change, negative = less light | human cells with a luciferase reporter of 2A StopGo recoding; control for the full effect not named in the record; active = well fitted falling curve with a large enough effect; inconclusive = small, poorly fitted or top-dose-only effect; inactive = no such curve, though single readings can be large or run the other way; tested in HEK293T cells; further: on the % scale 0 is the no-effect control and ±100 the full control effect; nearly all actives have a fitted effect of over 45% in size; luciferase light after 4 h
RE007 growth inh: qHTS Assay for Inhibitors of the HIV-1 protein Vpr; S. pombe RE007 Vpr strain, BacTiter-Glo ATP luminescence, 24 h; control for the full effect not named in the record; Potency, µM (series often up to 92.2 µM), inactives show at the top dose activity change, negative = less growth; 0.21% of 360,000 active; AID 651644, 2012; active = well fitted falling curve with a large enough effect; inconclusive = small, poorly fitted or top-dose-only effect; inactive = no such curve, though single readings can be large or run the other way;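 further: on the % scale 0 is the no-effect control and ±100 the full control effect; nearly all actives have a fitted effect of over 50% in size; the assay follows cell death caused by Vpr and the record does not say whether a fall means rescue or toxicity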
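Fission yeast RE007 carrying one integrated HIV-1 vpr copy, seeded at OD 0.01 in PMG+AL medium with 23 nL pinned compound. Grown 24 h at 30 degrees; viability read by BacTiter-Glo luminescence after 5 min.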
Marburg entry inh: qHTS for inhibitors of binding or entry into cells for Marburg Virus. Marburg virus pseudotyped entry inhibition, cell reporter; control for the full effect not named in the record; about a third of the inactives were read at about 46 µM. Potency, µM (titrated, usually from 37.8 µM), for the others: at the highest dose activity change, negative = inhibition, hits mostly inhibitors. 1.8% of 300,000 active. AID 540276, 2011; active = well fitted inhibition curve with a large enough effect; inconclusive = small, poorly fitted or top-dose-only effect, or effect the other way; inactive = flat fitted curve, though single readings scatter; tested in HEK293 cells; about a fifth of its hits are not listed in these tables; further: on the % scale 0 is the no-effect control and ±100 the full control effect; luciferase read-out
Lassa entry inh: qHTS for Inhibitors of binding or entry into cells for Lassa Virus. Potency, µM (top dose mostly 37.9 µM), without a hit: top-dose activity change, negative = inhibition, usual class: inhibitors. AID 540256, 2011. Lassa virus pseudotype entry inhibition, cell reporter; control for the full effect not named in the record. 1.2% of 300,000 active; active means well fitted inhibition curve with a large enough effect; inconclusive means small, poorly fitted or top-dose-only effect, or effect the other way; inactive means flat fitted curve, though single readings scatter; tested in HEK293 cells; further: on the % scale 0 is the no-effect control and ±100 the full control effect; nearly all actives have a fitted effect of over 50% in size; luciferase read-out
* marks the source's active call; other numbers are inactive results; ? = inconclusive; nt = not tested or not shown; & = joins results of further samples; [ ] = remark or other dose. Unless noted, the call rests on the fitted dose curve; in most records, active means well fitted rising curve with a large enough effect; inconclusive means small, poorly fitted or top-dose-only effect; inactive means no such curve, though single readings can be large or run the other way. Potency means the concentration at half of the fitted maximal effect.

SMILES	NS1 function inh	Cruzain Triton	SARS PLpro yeast	Cruzain inh noDet	2A StopGo	RE007 growth inh	Marburg entry inh	Lassa entry inh
Cc1ccc(S(=O)(=O)N2CCN(Cc3cccc(F)c3)CC2)cc1	nt	nt	nt	nt	-12%	-14%	-8%[46.1 µM]	0%
NNC(=O)CNC(=O)CNS(=O)(=O)c1ccccc1	5%	nt	0%	nt	-6%	-10%	24%[46.1 µM]	-6%
O=C(CSc1nnc(CNC(=O)c2c(F)cccc2F)o1)NCc1ccc(F)cc1	7%	nt	4%	nt	-15%	-1%	nt	nt
CC(=O)N1CCc2cc(S(=O)(=O)CCC(=O)Nc3ccc4c(c3)OCCO4)ccc21	4%	4.4%	4%	6%	-13%	26%	6%	-2%
COc1ccc(-c2[nH]ncc2C(=O)NCc2ccccc2C)cc1	nt	-0.1%	nt	-4%	-12%	nt	-16%[46.1 µM]	nt
O=C(/C=C/c1ccccc1)N1CCN(c2cccc(Cl)n2)CC1	4%	0.7%	0%	-7%	-10%	-11%	?	-13%
CCOc1ccc(NC(=O)C2CC(=O)N(c3ccc4c(c3)OCCO4)C2)cc1OCC (stereo unspecified)	nt	nt	-11%	nt	-5%	-5%	?	-11%
Oc1cccc(/C=N/NC(=S)Nc2cccnc2)c1O	?	-8.6%	-12%	-2%	59%[activator]	-6%	?	21µM*
COc1ccc(CN2C(=O)c3cccnc3C2Nc2cc(Cl)ccc2OC)cc1 (stereo unspecified)	-7%	?	0%	-4%	-2%	11%	3%&14%	7%
Cc1ccc(Nc2nnc(SC(C)C(=O)Nc3c(C)n(C)n(-c4ccccc4)c3=O)s2)cc1 (stereo unspecified)	24%	-2.3%	2.8µM*	8%	-8%	-2%	7%	4%
COC(=O)c1cc(Br)c(=O)n(Cc2ccc(C(=O)O)cc2)c1	-2%	2.9%	4%	-9%	0%	14%	-4%	1%
COc1cccc(NC(=S)N(CCc2c(C)[nH]c3ccccc23)Cc2ccco2)c1	?	-1.6%	0%	?	-28%	4%	-22%	-17%
COc1ccccc1CN(C)CC(=O)Nc1ccccc1-c1ccccc1	nt	nt	0%	nt	?	-21%	?	11%
CC(C)CNC(=O)COc1ccccc1[N+](=O)[O-]	-1%	-0.6%	-5%	13%	11%	-5%	?	-15%
CCOc1ccc(CCNc2nc3ccccc3n3c(C)nnc23)cc1OCC	1%	1.8%	-1%	-22%	-19%&-5%	15%	nt	3%[46.1 µM]
CCCCc1ccc(-n2nc3cc(C)c(NC(=O)Cc4ccccc4)cc3n2)cc1	nt	6.5%	nt	3%	-5%	nt	14%[46.1 µM]	11%[46.1 µM]
Cc1noc(C)c1C(=O)N1CCN(c2ncccn2)CC1	5%	5.5%	1%	-7%	7%	8%	11%	19%
CC1=C(C(=O)OC2CCCCC2)C(c2ccc(N(C)C)cc2)NC(=O)N1 (stereo unspecified)	4%	nt	-4%	nt	-16%	-8%	nt	nt
O=c1[nH]c(CSc2nnc(-c3cccnc3)n2C2CCCCC2)nc2ccccc12	8%	1.1%	6%	8%	0%	?	-14%	-14%
O=C(c1ccc(F)cc1)N1CCN(C2CCC(c3ccccc3)CC2)CC1 (stereo unspecified)	-2%	nt	0%	nt	-12%	8%	nt	nt
CCCC(=O)Nc1ccccc1NC(=O)c1ccc(OC)cc1	0%	nt	-2%	nt	-21%	2%	-15%[46.1 µM]	?
CCN(C(=O)COc1ncnc2ccccc12)C1CCCCC1	nt	nt	7%	nt	-1%	-6%	2%	?
N#Cc1c(NC(=O)CCN2C(=O)c3ccccc3C2=O)oc(-c2ccccc2)c1-c1ccccc1	3%	-2.7%	4%	?	-21%	-22%	5%&5%	-6%
COC(=O)CSc1nnnn1-c1cccc2ccccc12	-7%	0.1%	-5%	1%	10%	-13%	-11%	?
O=C(CSc1ccc(-c2ccccn2)nn1)c1ccc([N+](=O)[O-])cc1	nt	nt	27%	nt	-7%	-3%	2%[46.1 µM]	-21%[46.1 µM]
Continued:
SMILES	NS1 function inh	Cruzain Triton	SARS PLpro yeast	Cruzain inh noDet	2A StopGo	RE007 growth inh	Marburg entry inh	Lassa entry inh
CCN(Cc1ccc(OC)c(F)c1)C(=O)c1cc2ccccc2o1	-33%	nt	-4%	nt	22%	-11%	8%[46.1 µM]	13%[46.1 µM]
C[N+]1(CCN2C(=O)C3CC=C(Cl)CC3C2=O)CCOCC1 (stereo unspecified)	-10%	-1.8%	14%	4%	-17%	5%	18%	-5%
CCOc1ccc(-c2csc(NC(=O)c3cccc(N4C(=O)CCC4=O)c3)n2)cc1	-1%	nt	0%	nt	-16%	0%	-7%[46.1 µM]	2%
COc1ccc(CCNC(=O)C(=O)NCC(c2ccc3c(c2)OCO3)N2CCOCC2)cc1OC (stereo unspecified)	nt	-0.5%	nt	-6%	-19%	nt	nt	-11%[46.1 µM]
O=c1c2ccccc2nc(CNCC2CCCO2)n1-c1ccc(F)cc1 (stereo unspecified)	1%	nt	0%	nt	-12%	-16%	-33%[46.1 µM]	-7%[46.1 µM]
CCS(=O)(=O)NCc1csc(C)n1	5%	-0.5%	-3%	-6%	-21%	0%	-7%	0%
O=C(N/N=C/c1ccncc1)c1ccc(COc2cccc3cccnc23)cc1	nt	nt	1%	nt	0%	-2%	?	3%[46.1 µM]
COC(=O)CCCC(=O)NCC1(N(C)Cc2ccccc2)Cc2ccccc2C1	3%	nt	1%	nt	-12%	-5%	13%	-2%
COc1cc(OC)c(-n2cc(-c3ccc(Cl)cc3)[nH]c2=O)cc1Cl	4%	-3.6%	6%	-9%	-11%	-6%	9%	-1%
Cc1cc(C)n(-c2cccc(C(=O)O)c2)n1	4%	nt	1%	nt	1%	6%	9%	15%
O=C(Nc1ccc(-c2nnc(-c3ccccc3)o2)cc1)C1CCCO1 (stereo unspecified)	-19%	-9.7%	nt	-4%	-5%	-9%	?	-19%
CCOC(=O)c1sc2nc(C)nc(NCCc3ccc(S(N)(=O)=O)cc3)c2c1C	-1%	nt	10%	nt	6%	2%	4%[46.1 µM]	?
Clc1ccccc1N/N=C/c1ccc2c(c1)OCO2	-18%	-11%	-99%	-4%	24%	22%	?	?
Cc1ccccc1OCC(O)Cn1c(Br)nc2c1c(=O)n(C)c(=O)n2C (stereo unspecified)	-12%	-12%	14%	-10%	?	6%	-44%	-31%
CCCCSCCCNC(=O)CN1C(=O)COc2ccc(S(=O)(=O)N3CCC(C)CC3)cc21	nt	-2.5%	nt	-1%	-19%	nt	-10%[46.1 µM]	7%[46.1 µM]
Cc1cc(=O)n(CCC(=O)O)c2ccccc12	3%	-3.5%	-6%	4%	-12%	13%	13%	11%
COc1ccc2oc(C(=O)Nc3ccc(N4CCOCC4)cc3)c(C)c2c1	nt	nt	-1%	nt	?	-10%	?	-31%[46.1 µM]
CN1CCN(S(=O)(=O)CC2(C)C3CCC2(C)C(=O)C3Br)CC1 (stereo unspecified)	3%	nt	0%	nt	27%	7%	4%[46.1 µM]	17%
O=C(NCc1ccncc1)Nc1ccccc1	1%	1.4%	9%	-4%	-2%	-8%	3%	26%
Cc1ccc(SCCC(=O)Nc2ccc(OCc3ccccc3)cc2)cc1	3%	-6.2%	-14%	?	-4%	-14%	?	-21%
O=C1/C(=C/c2ccccc2[N+](=O)[O-])COc2ccccc21	-68%	nt	-3%	nt	?	-14%	nt	nt
CC1CC(c2ccccc2)NS(=O)(=O)O1 (stereo unspecified)	2%	nt	3%	nt	-1%	-1%	nt	nt
CN(c1ccc(C(=O)NCc2cccs2)cc1)S(=O)(=O)c1ccccc1	-9%	nt	0%	nt	13%	6%	nt	nt
Cc1cc(-c2ccc(C)c(S(=O)(=O)N3CCN(c4cccc(C(F)(F)F)c4)CC3)c2)on1	nt	1.7%	nt	-5%	-24%	nt	nt	-5%[46.1 µM]
COc1cc(NC(=O)C(F)(F)F)cc(OC)c1	-1%	2.6%	-2%	8%	-14%	5%	?	3%
Next compounds follow.
SMILES	NS1 function inh	Cruzain Triton	SARS PLpro yeast	Cruzain inh noDet	2A StopGo	RE007 growth inh	Marburg entry inh	Lassa entry inh
C=CCn1c(=O)/c(=C\c2ccsc2)s/c1=C(/C#N)C(=O)NCCN1CCOCC1	-5%	3.8%	2%	-4%	-28%	0%	14%	6%
Cc1ccc2nc(/C(C#N)=C\c3cc(O)ccc3[N+](=O)[O-])[nH]c2c1	4%	nt	-1%	nt	-5%	10%	25%[46.1 µM]	1%
C/C=C\C=C\C(=O)Nc1cccc(C2=NOC3(C2)C[C@H](C(N)=O)N(C(=O)c2ccccc2C(=O)c2ccccc2)C3)c1 (stereo partly specified)	-5%	nt	-1%	nt	-19%	7%	nt	nt
COc1cccc(NC(=O)CN2C(=O)C3(OCCCO3)c3ccccc32)c1	-10%	2.0%	2%	-2%	5%	10%	-26%	23%
CC1(C)CC(=O)C(C=NCCN2CCN(C3CC(=O)N(c4ccc(F)cc4)C3=O)CC2)=C(O)C1 (stereo unspecified)	-2%	nt	-6%	nt	-10%	-19%	21%	7%
O=C(O)/C=C/C(=O)NNC(=O)c1ccccc1Br	-7%	3.5%	1%	-5%	29%	1%	3%	-11%
CC1Cc2cc(S(=O)(=O)NCCc3ccccc3)ccc2N1C(=O)C1CC1 (stereo unspecified)	-8%	nt	0%	nt	-14%	3%	nt	nt
COc1ccc(S(=O)(=O)NCCN2CCOCC2)cc1Br	-5%	nt	17%	nt	13%	-4%	nt	nt
COc1cc(NC(=O)CN(C)CCOc2ccccc2)c(C)cc1[N+](=O)[O-]	-4%	nt	1%	nt	?	-26%	nt	nt
Cc1ccc(C(=O)CSc2cnc3ccccc3n2)cc1C	10%	-3.6%	-35%	12%	?	20%	18µM*	?
Cc1ccc(NC2CCCN(C(=O)Cc3nonc3C)C2)cc1C (stereo unspecified)	-12%	nt	0%	nt	-25%	2%	nt	nt

High-throughput results from PubChem.
